Screening results: PubChem, Broad Institute
FGF22 binding = binders of recombinant human FGF22 by thermal shift. 340,000 tested, 1.5% active. Q9HCT0. calls only at 9.99 µM. SYPRO orange fluorescence; percent of sucrose octasulfate shift, DMSO zero. AID 651658;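 active means melting point raised past a set limit in the mean and every replicate; three in four hits are not shown here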
Target sequence (Q9HCT0 whole entry, looked up): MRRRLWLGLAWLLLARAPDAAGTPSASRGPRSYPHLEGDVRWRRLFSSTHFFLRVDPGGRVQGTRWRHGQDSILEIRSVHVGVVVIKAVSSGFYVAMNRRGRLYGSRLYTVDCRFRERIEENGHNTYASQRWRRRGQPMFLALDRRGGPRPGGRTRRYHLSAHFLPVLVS
Ecoli rRNA inh = inhibits bacterial ribosomal RNA function over humanized ribosomes; GFP signal change (wild-type ribosome), % (no concentration beside the values); 350,000 tested, 1.6% active; E. coli WT GFP vs humanized-ribosome RFP mutants, fluorescence, 24 h; active compounds read low; DMSO median 0, no signal -100;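 active means significant combined selectivity score with lowered wild-type GFP, culture density cut under 30%, mutant RFP and density less affected; inactive means any of these conditions unmet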; further: one replicate is shown; some compounds called inactive have numbers as strong as hits
AF4-AF9 inh = inhibitors of human MLL-AF4/AF9 interaction | P42568 | inhibition, % at 10 µM | AlphaScreen, biotin-AF4 peptide binding to FLAG-AF9 | AID 651704 | 350,000 tested, 0.47% active;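 active means every replicate reaching a set inhibition limit, whatever the replicate mean, cut at about 25% in these data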;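 further: 0% = plate neutral control median and 100% = total signal loss; the record names both 10 and 1 µM as test concentration; the first replicate is given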
Target sequence (P42568 whole entry, looked up): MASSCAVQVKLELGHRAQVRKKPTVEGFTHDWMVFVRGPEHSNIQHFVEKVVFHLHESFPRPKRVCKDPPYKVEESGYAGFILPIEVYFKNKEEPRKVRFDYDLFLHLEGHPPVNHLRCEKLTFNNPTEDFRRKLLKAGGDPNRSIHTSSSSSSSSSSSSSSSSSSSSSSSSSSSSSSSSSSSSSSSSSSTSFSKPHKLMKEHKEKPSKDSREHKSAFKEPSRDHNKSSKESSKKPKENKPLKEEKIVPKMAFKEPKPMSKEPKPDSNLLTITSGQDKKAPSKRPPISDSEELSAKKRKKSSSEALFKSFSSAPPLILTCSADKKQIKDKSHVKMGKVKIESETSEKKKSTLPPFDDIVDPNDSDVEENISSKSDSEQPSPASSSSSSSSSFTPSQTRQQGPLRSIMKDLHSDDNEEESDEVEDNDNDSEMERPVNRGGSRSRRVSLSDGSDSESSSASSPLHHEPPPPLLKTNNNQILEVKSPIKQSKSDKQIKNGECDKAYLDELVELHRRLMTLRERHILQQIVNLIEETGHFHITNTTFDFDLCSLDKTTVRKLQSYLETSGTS
Ecoli rRNA inh OD600 = also measured in Ecoli rRNA inh; calls as there; OD600 change, %; measured here: OD600 growth;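 optical density of the mix in the first replicate; 0 = DMSO median and -100 = no signal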
Ecoli rRNA inh RFP = second read-out of Ecoli rRNA inh, no call of its own (marks repeat the call); RFP signal change, %; measured here: RFP humanized mutant strains;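 first replicate; 0 = DMSO median and -100 = no signal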
An asterisk follows results filed as active; i = inactive. Only part of the results is shown, so the mix of outcomes need not match the whole.

#	SMILES	AF4-AF9 inh	Ecoli rRNA inh	Ecoli rRNA inh OD600
1	COC(=O)c1ccc(CNC(=O)C2CCC(=O)N(CCc3ccccn3)C2)cc1 (configuration not stated)	-2.0	9	19
2	NCC[C@H]1CC[C@@H](NC(=O)Nc2ccc(F)cc2)[C@@H](CO)O1	5.9	3	2
3	CC(=O)N(C)C[C@H]1Oc2cc(C#CC(C)(C)O)ccc2S(=O)(=O)N([C@@H](C)CO)C[C@H]1C	-1.5	-5	4
4	O=C(C[C@@H]1C[C@@H]2c3cc(NC(=O)NC4CCCC4)ccc3O[C@@H]2[C@@H](CO)O1)NCc1ccccn1	-2.0	4	9
5	CN(C)Cc1cn(CC[C@H]2CC[C@H](NC(=O)Cc3cccnc3)[C@@H](CO)O2)nn1	-1.2	0	5
6	Cc1noc(C)c1NC(=O)N(C)C[C@@H]1Oc2c(NC(=O)c3nc4ccccc4s3)cccc2C(=O)N([C@@H](C)CO)C[C@H]1C	0.6	-2	-2
7	C[C@H]1CN([C@@H](C)CO)C(=O)Cc2cc(NC(=O)NC3CCCCC3)ccc2O[C@@H]1CN(C)Cc1ccc(C(=O)Nc2ccccc2N)cc1	-1.2	-4	0
8	COc1ccc(S(=O)(=O)N(C)C[C@@H]2OCCCC[C@H](C)Oc3ccc(NC(=O)Cc4ccccc4)cc3C(=O)N([C@@H](C)CO)C[C@@H]2C)cc1	2.2	1	-2
9	C[C@@H]1CN([C@H](C)CO)C(=O)c2cc(NC(=O)c3ccccc3)ccc2O[C@@H](C)CCCCO[C@H]1CN(C)C(=O)C1CCCCC1	-2.1	-4	-10
10	C[C@H]1CN([C@@H](C)CO)C(=O)Cc2cc(NC(=O)Cc3ccccc3)ccc2O[C@@H]1CN(C)C	-0.2	7	0

#	FGF22 binding	Ecoli rRNA inh RFP
1	i	-0.2
2	i	0.2
3	i	-4.2
4	i	0.0
5	i	-0.1
6	i	0.4
7	i	-0.1
8	i	-2.2
9	i	0.6
10	i	-1.5

Further compounds:
#	SMILES	AF4-AF9 inh	Ecoli rRNA inh	Ecoli rRNA inh OD600
11	COCC(=O)N(C)C[C@H]1Oc2cc(C#CC(C)C)ccc2S(=O)(=O)N([C@H](C)CO)C[C@H]1C	-1.6	0	2
12	CC(=O)c1ccc(OC2(C)CCN(Cc3ccc(C)cc3)C2)cc1 (configuration not stated)	2.4	6	13
13	C[C@@H]1CN([C@H](C)CO)S(=O)(=O)c2ccc(-c3cncnc3)cc2O[C@@H]1CN(C)Cc1cccnc1	1.8	2	5
14	O=C(N[C@@H]1CC[C@H](CCNC(=O)C2CCC2)O[C@H]1CO)c1ccccn1	0.0	2	0
15	O=S(=O)(c1ccccc1)N1CC2(C1)[C@H](c1ccccc1)[C@@H](CO)N2CC1CCCC1	0.8	-20	-55
16	O=C(NCc1ccc(F)cc1)[C@H]1N[C@H]2c3ccc(-c4ccccc4)c(=O)n3C[C@H]2[C@@H]1CO	2.5	-6	-17
17	C[C@H]1CN([C@@H](C)CO)C(=O)c2cccc(NC(=O)C3CCOCC3)c2O[C@@H]1CN(C)CC1CCCCC1	-2.1	-5	-6
18	C[C@@H]1CN([C@H](C)CO)C(=O)c2cc(NC(=O)CCC(F)(F)F)ccc2O[C@@H]1CN(C)S(=O)(=O)c1ccc(Cl)cc1	-0.8	-2	-11
19	C[C@H](CO)N1C[C@H](C)[C@H](CN(C)Cc2ccc(C(F)(F)F)cc2)OCCCC[C@H](C)Oc2ccc(NC(=O)Nc3ccc(F)cc3)cc2C1=O	-0.1	3	5
20	CO[C@@H]1CN(C)C(=O)c2ccc(NC(C)=O)cc2OC[C@H](C)N(C(=O)C2CC2)C[C@H]1C	-1.1	2	3

#	FGF22 binding	Ecoli rRNA inh RFP
11	i	0.8
12	i	2.2
13	i	0.8
14	i	-2.7
15	i	16
16	i	-2.8
17	i	1.8
18	i	0.5
19	i	-0.1
20	i	-1.8

(further entries)
#	SMILES	AF4-AF9 inh	Ecoli rRNA inh	Ecoli rRNA inh OD600
21	O=C(Nc1cccc(F)c1)N1CCCCN2[C@@H](CO)[C@@H](c3ccc(C#Cc4cccnc4)cc3)[C@@H]2C1	5.1	-5	-11
22	Cc1cc(C(=O)Nc2cccc3c2O[C@H](CN(C)Cc2ccncc2)[C@H](C)CN([C@@H](C)CO)C3=O)n(C)n1	-1.3	0	3
23	CCC(=O)N(C)C[C@@H]1Oc2cc(C#CCN(C)C)ccc2S(=O)(=O)N([C@H](C)CO)C[C@H]1C	0.5	2	10
24	COc1ccccc1-c1ccc([C@@H]2[C@H](CO)N3CCCCN(C(=O)c4cccnc4)C[C@@H]23)cc1	-0.1	7	0
25	CCCNC(=O)C1(C)CCN(Cc2ccc(-n3ccnc3)cc2)C1 (configuration not stated)	3.3	-1	3
26	CNC[C@@H]1Oc2cc(C#CC3(O)CCCC3)ccc2S(=O)(=O)N([C@H](C)CO)C[C@H]1C	1.8	6	5
27	CCCS(=O)(=O)NC(=O)C1(C)CCN(C(=O)c2cc(F)cc(F)c2)C1 (configuration not stated)	-0.7	4	8
28	Cc1cccc(-c2ccc([C@H]3[C@@H](CO)N4CCCCN(S(=O)(=O)c5ccccc5F)C[C@H]34)cc2)c1	-0.6	-52	-74
29	CN1C(=O)c2cc(NC(=O)c3cccc(C(F)(F)F)c3)ccc2OC[C@H]2O[C@H](CC(=O)O)CC[C@@H]21	-0.8	3	5
30	C[C@@H]1CCCCO[C@@H](CN(C)Cc2ccc3c(c2)OCO3)[C@@H](C)CN([C@@H](C)CO)C(=O)c2cc(NC(=O)Nc3ccccc3)ccc2O1	11	1	-9

#	FGF22 binding	Ecoli rRNA inh RFP
21	i	1.2
22	i	-0.2
23	i	-2.7
24	i	-2.1
25	i	0.5
26	i	-2.5
27	i	-0.1
28	i	-9.0
29	i	-1.7
30	i	4.0

An excerpt from above with just Ecoli rRNA inh RFP, AF4-AF9 inh and FGF22 binding:
no.	Molecule	Ecoli rRNA inh RFP	AF4-AF9 inh	FGF22 binding
26	CNC[C@@H]1Oc2cc(C#CC3(O)CCCC3)ccc2S(=O)(=O)N([C@H](C)CO)C[C@H]1C	-2.5	1.8	i
27	CCCS(=O)(=O)NC(=O)C1(C)CCN(C(=O)c2cc(F)cc(F)c2)C1 (configuration not stated)	-0.1	-0.7	i

(list continues)
#	SMILES	AF4-AF9 inh	Ecoli rRNA inh	Ecoli rRNA inh OD600
31	O=C(NCC1CCCCC1)[C@@H]1N[C@@H]2c3ccc(C4=CCCC4)c(=O)n3C[C@@H]2[C@H]1CO	-1.0	-7	-17
32	CO[C@@H]1CN(C)C(=O)c2cc(NC(=O)C3CCCC3)ccc2OC[C@H](C)N(C(=O)CC2CC2)C[C@H]1C	-0.9	2	3
33	C[C@H](CO)N1C[C@H](C)[C@H](CN(C)S(=O)(=O)c2cn(C)cn2)OCCCC[C@H](C)Oc2ccc(NC(=O)CCC(F)(F)F)cc2C1=O	2.0	1	4
34	CCCNC(=O)N1[C@@H]2c3cccc(=O)n3C[C@H]1[C@H](CO)[C@H]2C(=O)N1CCC(Cc2ccccc2)CC1	-3.1	0	3
35	C[C@H](CO)N1C[C@H](C)[C@@H](CN(C)Cc2ccc(C(=O)Nc3ccccc3N)cc2)Oc2ccc(NC(=O)CCC(F)(F)F)cc2CC1=O	-2.9	4	-4
36	C[C@@H]1CN([C@H](C)CO)C(=O)c2cc(NC(=O)CCN3CCOCC3)ccc2O[C@H]1CN(C)S(C)(=O)=O	-1.3	2	3
37	CN1C[C@@H]2[C@H](c3ccccc31)[C@H](CO)N2C(=O)C1CC1	-0.9	-1	1
38	N#C[C@@H]1[C@@H](c2ccc(-c3cccc(F)c3)cc2)[C@H](CO)N1C(=O)CN1CCOCC1	0.0	1	18
39	O=C(C[C@H]1CC[C@@H](NC(=O)c2cccc(F)c2)[C@H](CO)O1)NCc1ccccc1	-2.1	4	14
40	C[C@H]1CN([C@@H](C)CO)C(=O)c2cc(NC(=O)C3CCCCC3)ccc2O[C@@H]1CN(C)C	-3.8	2	11

#	FGF22 binding	Ecoli rRNA inh RFP
31	i	-0.7
32	i	0.4
33	i	0.1
34	i	1.9
35	i	0.3
36	i	-0.9
37	i	-0.8
38	i	0.8
39	i	-4.9
40	i	-2.3

New compounds follow
#	SMILES	AF4-AF9 inh	Ecoli rRNA inh	Ecoli rRNA inh OD600
41	COc1ccc(NC(=O)Nc2ccc3c(c2)C(=O)N([C@H](C)CO)C[C@H](C)[C@@H](CN(C)C(=O)Nc2cccc4ccccc24)OCCCC[C@H](C)O3)cc1	-0.2	5	9
42	O=C1CN(Cc2ccccc2)CC(=O)N1	-4.3	38	26
43	O=C(COC(=O)CCc1c[nH]c2ccccc12)Nc1ccccc1	-0.6	-2	2
44	CC(C)NC(=O)N[C@H]1C=C[C@@H](CC(=O)O)O[C@@H]1CO	0.2	4	8
45	CC(=O)N(C)C[C@@H]1Oc2ncc(-c3cccnc3)cc2C(=O)N([C@H](C)CO)C[C@@H]1C	-3.1	7	7
46	CCCC#Cc1cnc2c(c1)C(=O)N([C@H](C)CO)C[C@@H](C)[C@@H](CN(C)C(=O)Cc1ccncc1)O2	-3.5	4	5
47	CC(C)c1ccc(NC(=O)CN(C)C2=NS(=O)(=O)c3ccccc32)cc1	0.4	-3	-2
48	CN(c1ccccc1)S(=O)(=O)c1ccc(NC(=O)CC(=O)c2ccccc2)cc1	2.3	-8	-24
49	COC(=O)C[C@H]1CC[C@H](NC(=O)c2ccc(F)cc2)[C@@H](CO)O1	-3.0	11	5
50	CCCN(C)C[C@@H]1Oc2ncc(-c3cccc(F)c3)cc2C(=O)N([C@H](C)CO)C[C@@H]1C	-1.3	8	4

#	FGF22 binding	Ecoli rRNA inh RFP
41	i	-1.2
42	i	6.2
43	i	-3.6
44	i	-1.3
45	i	-2.3
46	i	-2.1
47	i	-1.4
48	i	0.6
49	i	-0.7
50	i	1.3

More records follow.
#	SMILES	AF4-AF9 inh	Ecoli rRNA inh	Ecoli rRNA inh OD600
51	O=C(N[C@H]1CC[C@H](CCNC(=O)C2CCOCC2)O[C@H]1CO)c1ccncc1	0.5	3	2
52	Cc1noc(C)c1S(=O)(=O)Nc1cccc2c1O[C@@H](CN(C)C(=O)Nc1ccccc1)[C@@H](C)CN([C@H](C)CO)C2=O	-2.1	-4	-1
53	C[C@H](NC(=O)C[C@H]1CC[C@@H](NC(=O)CN2CCOCC2)[C@H](CO)O1)c1ccccc1	-2.0	0	2
54	CN(C)c1ccc2c(c1)[C@@H]1C[C@@H](CC(=O)NCc3cc(F)ccc3F)O[C@H](CO)[C@@H]1O2	-4.7	-1	-10
55	C=CCN1CCOc2ccc(C)cc2S1(=O)=O	0.3	5	10
56	Cc1cccc(S(=O)(=O)N2CCCCN3[C@H](C2)[C@H](c2ccc(C#CC(C)C)cc2)[C@@H]3CO)c1	-16	5	6
57	O=[N+]([O-])/C(Cl)=C(/NCCO)C(Cl)=C(Cl)Cl	6.0	5	3
58	CCCNC(=O)C[C@@H]1CC[C@@H]2[C@H](COc3ccc(NC(=O)Nc4cccc(C)c4)cc3C(=O)N2C)O1	3.6	-5	-14
59	O=c1[nH]c(=O)n(C(c2ccccc2)(c2ccccc2)c2ccccc2)cc1N(CCO)CCO	3.4	-43	-65
60	COCCNC(=O)C1CCCN(C(=O)COc2ccc(Cl)cc2Cl)CC1 (configuration not stated)	-1.3	2	7
61	COc1ccc(S(=O)(=O)Nc2cccc3c2O[C@@H](CN(C)Cc2ccc4c(c2)OCO4)[C@H](C)CN([C@@H](C)CO)C3=O)cc1	-1.9	1	8
62	O=S1(=O)CC(N2CCN(CC3CC3)CC2)CN1C1CCCC1 (configuration not stated)	0.5	15	5
63	CCC(c1nnnn1C(C)(C)C)N1CCN(C/C=C/c2ccccc2)CC1 (configuration not stated)	-2.3	24	20

#	FGF22 binding	Ecoli rRNA inh RFP
51	i	1.2
52	i	2.4
53	i	-0.3
54	i	6.3
55	i	-6.2
56	i	-2.8
57	i	-1.1
58	i	2.0
59	i	-7.3
60	i	-1.1
61	i	1.1
62	i	-12
63	i	3.7

Complete entries, quoted from the list:
Results for O=[N+]([O-])/C(Cl)=C(/NCCO)C(Cl)=C(Cl)Cl = AF4-AF9 inh = 6.0; Ecoli rRNA inh = 5; Ecoli rRNA inh OD600 = 3; FGF22 binding = i; Ecoli rRNA inh RFP = -1.1
Results for O=c1[nH]c(=O)n(C(c2ccccc2)(c2ccccc2)c2ccccc2)cc1N(CCO)CCO = AF4-AF9 inh = 3.4; Ecoli rRNA inh = -43; Ecoli rRNA inh OD600 = -65; FGF22 binding = i; Ecoli rRNA inh RFP = -7.3
